VACV Venus inh – inhibitors of vaccinia virus (Venus reporter) | AID 720580 | hit rate 0.46% among 330,000 | Potency, µM (titrated, usually from 36.5 µM), without a hit: at the top dose activity change, negative = inhibition, actives largely listed as inhibitors | Vaccinia virus Venus reporter expression, fluorescence; active means well fitted inhibition curve with a large enough effect; inconclusive means small, poorly fitted or top-dose-only effect; inactive means no such curve, though single readings can be large or run the other way; tested in A549 cells; also: nearly all actives have a fitted effect of over 30% in size; inactives centre near -10
VACV mCherry inh – inhibitors of vaccinia virus infection (mCherry reporter signal) | Vaccinia virus mCherry reporter infection, fluorescence; about a quarter of the inactives have no number | Potency, µM (titrated, usually from 36.5 µM), without a hit: top-dose activity change, negative = inhibition, most hits filed as inhibitors | hit rate 0.63% among 310,000 | AID 720579; active = well fitted inhibition curve with a large enough effect; inconclusive = small, poorly fitted or top-dose-only effect; inactive = no such curve, though single readings can be large or run the other way; tested in A549 cells; also: nearly all actives have a fitted effect of over 35% in size; inactives centre near -10
An asterisk follows results filed as active; i = inactive; ? = inconclusive; . = not tested or not shown; [ ] = remark or other dose. % is scaled to controls: 0 for no effect and ±100 for the full control effect; potency is read from the fitted curve at half-maximal effect.

The line under a structure holds: VACV mCherry inh	VACV Venus inh
- COc1ccccc1C(=O)Nc1ccc(-c2nnn(CC(=O)N3CCN(C(=O)c4ccco4)CC3)n2)cc1
→ -14%	-5%
- CCC(C)(C)NC(=O)CN(Cc1cccs1)C(=O)CCC(=O)Nc1nccs1
→ -1%	-9%
- Cc1nc2ccccc2n1/N=C/c1ccc([N+](=O)[O-])o1
→ 7.9µM*	11µM*
- CC(C)C1NCCc2c1sc1ccccc21 (stereo not given)
→ i	-11%
- CCN1C(=O)[C@H]2[C@@H](c3ccc(-c4ccc(Cl)c(Cl)c4)cc3)N3CCCC[C@@]3(C(=O)OC)[C@H]2C1=O
→ ?	?
- NC(=O)CC(NC(=O)c1cccc(Br)c1)c1ccc(N2CCC(N3CCCC3)CC2)c([N+](=O)[O-])c1 (stereo not given)
→ -1%	-6%
- CC(C)C[C@@H](CNCC(=O)[C@H](Cc1c[nH]c2ccccc12)NC(=O)c1[nH]cnc1C(=O)N[C@H](CN)CC(C)C)NC(=O)c1nc[nH]c1C(=O)N[C@@H](CC(=O)O)C(=O)O
→ i	-11%
- CCc1ccc(C2=NN(CCC(=O)N3CCC4(CC3)OCCO4)C(=O)CC2)cc1
→ i	-6%
- O=C(CC[C@H]1O[C@@H](n2cnc3c(NC(=O)c4ccccc4)ncnc32)[C@H](O)[C@@H]1O)NCc1ccco1
→ 9%	0%
- Cc1ccc(S(=O)(=O)NNC(=O)c2sc3nc(C)cc(C)c3c2-n2cccc2)cc1
→ -16%	-5%
- Cc1cc(C)c(-c2csc(NC(=O)C3=COCCO3)n2)cc1C
→ -12%	-25%
- O=C(CSCc1ccc(Cl)cc1)N/N=C/c1c(Cl)cccc1Cl
→ i	-4%
- Cn1c(=O)c2c(-c3ccccc3)n(-c3ccccc3N)cc2n(C)c1=O
→ 1%	-10%
- Oc1ccc(-c2nccc(-c3cccs3)n2)cc1
→ -28%	-26%
- CCC(O)(c1ccccc1)C(CN1CCOCC1)c1ccccc1 (stereo not given)
→ ?	-3%
- COc1ccccc1NS(=O)(=O)c1cc(NC(=O)c2ccccc2[N+](=O)[O-])ccc1N1CCOCC1
→ -16%	-4%
- COc1ccccc1N1CCN(C(=O)c2c(C)oc3ncn(CC(C)C)c(=O)c23)CC1
→ -10%	0%
- COc1ccc(N(CC(=O)NCc2ccc(F)cc2)S(=O)(=O)c2c(C)n[nH]c2C)cc1
→ -11%	0%
- CCCCCCCCCCC(C)(C)C(=O)Nc1c(OC)cc(OC)cc1OC
→ -24%	-25%
- CCOC(=O)N1CCc2c(sc3c2c(=O)n(-c2ccc(Cl)cc2)c(=O)n3Cc2cccc(OC)c2)C1
→ -10%	-13%
- COc1ccc(C(=O)c2c[nH]c(C(=O)NCCCn3ccnc3)c2)cc1
→ -17%	-8%
- CCCCOC(=O)c1ccc(NC(=O)CSc2nncn2C)cc1
→ .	0%
- COc1cccc2c1Oc1cc([N+](=O)[O-])cc(N(C)C(C)=O)c1C=C2
→ 7.1µM*	-21%
- COc1ccccc1CNC(=O)Cc1csc2nc(-c3ccccc3)cn12
→ -12%	-9%
- CC1=C(C#N)C(c2ccoc2)C(C(=O)OCc2ccccc2)=C(N)S1 (stereo not given)
→ .	-18%
- O=c1[nH]c2ccc(NC(=S)Nc3ccccc3)cc2[nH]1
→ -3%	2%
- COc1ccccc1CCNC(=O)Cc1c(C)c2cc3c(C)coc3cc2oc1=O
→ -10%	-5%
- O=C(Nc1ccccc1C(=O)O)c1cc(S(=O)(=O)N2CCCCC2)c(Cl)cc1Cl
→ i	-6%
- CC(C)(C)OC(=O)NCCCC[C@H](NC(=O)c1[nH]cnc1C(=O)N[C@@H](Cc1ccccc1)C(=O)OC(C)(C)C)C(=O)OC(C)(C)C
→ -20%	?
- COc1cc(OC)cc(C(=O)Nc2ccc3oc(-c4ccccc4C)nc3c2)c1
→ -10%	6%
- CCOc1ccc(S(=O)(=O)NCCC(=O)N(C)Cc2ccc(C)o2)cc1
→ -19%	-10%
- CCN(C(=O)CCNC(=O)Cn1cnc2ccccc2c1=O)c1ccccc1F
→ -3%	-7%
- O=C(NCc1cccc(Cl)c1)c1ccc(NC(=O)N2CC3CCCN3c3ccccc32)cc1 (stereo not given)
→ -18%	-10%
- O=C(COC(=O)CCc1nc2ccccc2c(=O)[nH]1)NC(=O)NC1CCCC1
→ -5%	-12%
- CCCCN(C(=O)C1CCCC1)C1CCS(=O)(=O)C1 (stereo not given)
→ -6%	-4%
- COc1cccc(-c2noc(CCC(=O)NC3CCCCC3)n2)c1
→ i	-7%
- CCOC(=O)c1sc(C)c(C(=O)NCCCN2CCOCC2)c1N
→ -10%	-5%
- Cc1cccc(C)c1NC1=NC(=S)N(c2ccc(C(=O)O)cc2)C12CCCCC2
→ -5%	-7%
- Cc1nn(Cc2ccccc2)c(Cl)c1C(=O)OC(C)C#N (stereo not given)
→ -10%	-3%
- CCNC(=O)N1CCC(c2nc3ccccc3s2)CC1
→ -9%	-19%
- O=C(NC(=S)NCCc1ccccc1)c1ccccc1F
→ -13%	3%
- CC(=O)c1cccc(NC(=O)c2ccc([N+](=O)[O-])o2)c1
→ -2%[7.34 µM]	-2%[7.34 µM]
- CCOc1ccc(C(=O)NCC(c2ccco2)S(=O)(=O)c2ccc(C)cc2)cc1 (stereo not given)
→ -3%	-9%
- COc1cc(NC(=O)c2cccs2)ccc1NC(=O)c1ccccc1Cl
→ -26%	-6%
- O=C(COc1ccc(F)cc1)OCc1cc(=O)n2nc(-c3cccs3)sc2n1
→ -6%	-3%
- CN(c1ccc(C(=O)N2CCCCC2)cc1)S(=O)(=O)c1cccs1
→ i	-4%
- O=C(O)/C=C/C(=O)Nc1ccc(Cl)c(C(=O)O)c1
→ -8%	3%
- CC(=O)c1sc(NC(=O)CCN2C(=O)c3ccccc3C2=O)nc1C
→ -20%	-11%
- O=C(O)C1CCCN(S(=O)(=O)c2ccccc2)C1 (stereo not given)
→ i	-19%
- COc1ccccc1NC(=O)N1CCN(c2ccccn2)CC1
→ -7%	-7%
- CCC(Sc1nc2cc(OC)c(OC)cc2c2nc(-c3ccccc3)nn12)C(=O)Nc1cccc(C)c1 (stereo not given)
→ -9%	-3%
- COc1cccc(C(=O)NC(C)C(c2cccs2)N2CCOCC2)c1 (stereo not given)
→ -2%	-8%
- COc1ccc(C2CC3CC(c4ccccc4)N2O3)cc1 (stereo not given)
→ -18%	-5%
- CCOCCCNC(=O)C(c1ccc(C)cc1)N(Cc1cccs1)C(=O)c1ccc(NC(C)=O)cc1 (stereo not given)
→ -9%	-8%
- CN(C(=O)c1ccc(S(=O)(=O)N(C)C)cc1)c1ccc2ccccc2c1
→ -4%	-16%
- Cc1cc(C)nc(SCC(=O)NC2CCCCC2C)n1 (stereo not given)
→ i	-14%
- O=C1CN(C(=O)COC(=O)c2cccnc2Cl)c2ccccc2N1
→ i	-20%
- CCOC(=O)c1c(NC(=O)CNCCO)sc(C)c1C
→ .	-17%
- CCOC(=O)N1CCN(S(=O)(=O)c2ccc3c(c2)CC(C)N3C(=O)C2CC2)CC1 (stereo not given)
→ -22%	-16%
- O=C(Nc1ccc(S(=O)(=O)N2CCCC2)cc1)c1cc(F)c(F)cc1Cl
→ -23%	-18%

Next entries:
The line under a structure holds: VACV mCherry inh	VACV Venus inh
- Clc1ccc(CSc2nnc(NC3=NCCCCC3)s2)cc1
→ .	?
- Cc1cc(C(=O)OCC(=O)N2CC(C)OC(C)C2)c2ccccc2n1 (stereo not given)
→ i	-4%
- CCOC(=O)c1csc(NC(=O)c2ccc3c(c2)OCCO3)n1
→ -12%	-25%
- CCCCOC(=O)CSC1=C(C#N)C(c2ccccc2OCC)C(C#N)C(=O)N1 (stereo not given)
→ ?	?
- CCc1cc(C(=O)Cc2nc3ccccc3[nH]2)c(O)cc1O
→ ?	-19%
- CCN(CC)c1nn2c(=O)c(C(=O)NCc3ccccc3Br)cnc2s1
→ -19%	-11%
- CCOc1ccc(OCc2cccc(C(=O)N(CC)CC)c2)cc1
→ i	5%
- Nc1nc(Nc2ccccc2Br)nc(C(F)(F)F)n1
→ i	-13%
- COc1ccc(C2c3[nH]c4ccccc4c3C[C@H]3C(=O)N(CC(C)C)CC(=O)N23)c(OC)c1 (stereo not given in full)
→ -14%	-3%
- CS(=O)(=O)N(CC(=O)N1CCN(Cc2ccccc2)CC1)c1cccc(F)c1
→ i	-11%
- c1ccc(CC(Nc2ccccn2)c2ccccc2)cc1 (stereo not given)
→ -11%	-13%
- Cn1c(-c2ccccc2)cnc1NCc1cc2c(cc1[N+](=O)[O-])OCO2
→ -10%	-2%
- CCCCN1CC(C)(C)Oc2cccc(F)c2S1(=O)=O
→ -7%	-5%
- Cc1cc(C(=O)Nc2c(C)nn(Cc3ccccc3)c2C)on1
→ -12%	-7%
- CN(CCC1CCOCC1)C(=O)CC1C(=O)NCCN1Cc1cccc(F)c1 (stereo not given)
→ -9%	-2%
- O=C(NCC1CCCN1S(=O)(=O)c1cccs1)c1ccc(F)cc1 (stereo not given)
→ i	-22%
- CCOC(=O)C1=C(COC(=O)/C=C/c2ccc(OC)c(OC)c2)NC(=O)NC1C (stereo not given)
→ -8%	-18%
- COCCN(C(=O)c1snc(C(N)=O)c1N)C(C(=O)NC1CCCC1)c1cc(OC)c(OC)c(OC)c1 (stereo not given)
→ 8%	-9%
- C=CCN1C=C2C(=O)C(C)(OC(=O)c3cccs3)C(=O)C=C2C=C1CCCC(=O)OC (stereo not given)
→ i	0%
- COc1ccc(S(=O)(=O)Nc2ccc3c(c2)C(=O)N([C@H](C)CO)C[C@H](C)[C@@H](CN(C)S(=O)(=O)c2ccc(OC)cc2)O3)cc1
→ ?	?
- O=C(CSC1=NCCS1)Nc1nc2ccccc2s1
→ ?	?
- Cc1[nH]c2ccccc2c1C(=O)/C=C/c1ccccc1
→ .	?
- CSc1ccc(Cl)c(C(=O)NNC(=O)c2cccs2)c1
→ i	0%
- COc1ccc(C2CC(c3ccccc3OC(C)=O)=NN2C(=O)/C=C/c2ccccc2)cc1OC (stereo not given)
→ ?	-18%
- O=C(NCCCN1CCCCC1)C1CCN(c2ncnc3c2nc2n3CCCCC2)CC1
→ -14%	-5%
- CC[C@H](C)[C@H](NC(N)=O)C(=O)NCCc1ccc(Cl)cc1Cl
→ -5%	-2%
- Cc1ccc(/C=C/C(=O)OC(C)C(=O)Nc2ccc(Cl)cn2)o1 (stereo not given)
→ -18%	4%
- O=C1N[C@@H](Cc2ccccc2)COC(=O)[C@H](Cc2ccc(F)cc2)CC/C=C/C[C@H]1CC(=O)N(CCO)Cc1ccccc1
→ ?	?
- O=C(c1cccc(Cl)c1)N1CCN(Cc2ccncc2)CC1
→ .	-6%
- CC(c1ccco1)N(C(=O)c1cccc(Br)c1)c1ccccn1 (stereo not given)
→ -16%	-8%
- CCc1ccc(Nc2nc3ccccc3c(=O)s2)cc1
→ -23%	-21%
- CC[C@]12c3[nH]c4ccccc4c3CCN1C(=O)C(CC(=O)NCCc1ccccn1)C[C@@H]2C(=O)N1CCN(C(=O)c2ccco2)CC1 (stereo not given in full)
→ i	-15%
- Cc1ccc(CCNC(=O)CCN2N=C(c3ccc(C)cc3)CCC2=O)cc1
→ -4%	-11%
- COCC(C)Nc1ncnc2c1cnn2-c1cccc(Cl)c1 (stereo not given)
→ -21%	-18%
- CCOC(=O)Cc1csc(NC(=O)CSc2nc(-c3ccccc3)c(C#N)c(=O)[nH]2)n1
→ -1%	-5%
- COc1cccc(N(C(=O)Cn2nnc(-c3ccc(F)cc3)n2)C(C(=O)NCC2CCCO2)c2ccc(Cl)cc2)c1 (stereo not given)
→ i	-7%
- COc1ccc(CNC(=O)c2ccc(-c3nc(CS(=O)c4ccc(C)cc4)c(C)o3)cc2)cc1 (stereo not given)
→ -25%	-26%
- CC12CCC(C(=O)C1)C1(C)CCCC(=O)C21 (stereo not given)
→ -7%	-6%
- Cc1cc(N)ccc1-n1nc2ccccc2n1
→ -25%	-10%
- CC(NC(=O)c1ccc(Br)o1)c1ccc(-n2ccnc2)cc1 (stereo not given)
→ -4%	7%

7 compounds out of the list, sorted by molecular weight, ascending:
The line under a structure holds: VACV mCherry inh	VACV Venus inh
- Cc1cc(N)ccc1-n1nc2ccccc2n1
→ -25%	-10%
- CCc1ccc(Nc2nc3ccccc3c(=O)s2)cc1
→ -23%	-21%
- O=C(CSC1=NCCS1)Nc1nc2ccccc2s1
→ ?	?
- COCC(C)Nc1ncnc2c1cnn2-c1cccc(Cl)c1 (stereo not given)
→ -21%	-18%
- CC[C@H](C)[C@H](NC(N)=O)C(=O)NCCc1ccc(Cl)cc1Cl
→ -5%	-2%
- COc1ccc(C2CC(c3ccccc3OC(C)=O)=NN2C(=O)/C=C/c2ccccc2)cc1OC (stereo not given)
→ ?	-18%
- COc1ccc(CNC(=O)c2ccc(-c3nc(CS(=O)c4ccc(C)cc4)c(C)o3)cc2)cc1 (stereo not given)
→ -25%	-26%

(next part)
The line under a structure holds: VACV mCherry inh	VACV Venus inh
- CSc1ccccc1NC(=O)C1CCCN(S(C)(=O)=O)C1 (stereo not given)
→ -8%	-20%
- COC(=O)[C@]1(C)N[C@H](CN(C)C(=O)c2ccc(C(C)(C)C)cc2)[C@@H]2C(=O)N(Cc3ccccc3)C(=O)[C@@H]21
→ -5%	-21%
- O=C(NCc1cccs1)C1CCCN(C(=O)Nc2ccc(F)cc2)C1 (stereo not given)
→ -14%	-11%
- Cc1cnc(C(=O)Nc2ccc(C(=O)N3CCCCC3)cc2)cn1
→ .	-2%
- COC(=O)c1cnc[nH]1
→ i	-3%

Screening data (PubChem)
